Compound activity from PubChem.
Menin-MLL FL inh – menin-MLL binding inhibition, fluorescein peptide. Fluorescence polarization, fluorescein-MLL peptide displacement from menin. FP activity change, % at 61.4 µM. 290,000 tested, under 10 active. AID 1766; inconclusive = falling polarisation curve, or a change in total fluorescence; inactive = total fluorescence flat and polarisation flat or rising; no compound was filed as active; the % refers to the polarisation; negative = inhibition;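 further: % of control where 0% means no effect; inhibitors lower the polarisation; unlabelled MLL peptide was the positive control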
ClpP mod – qHTS Assay for Activators of ClpP | ATP-dependent Clp protease proteolytic subunit (Bacillus subtilis (strain 168)), P80244 | purified B. subtilis ClpP, FRET peptide cleavage, 20 min | Potency, µM (titrated, usually from 57.5 µM), inactives show top-dose activity change, negative = active | 1.9% of 340,000 active; active = well fitted falling curve with a large enough effect; inconclusive = small, poorly fitted or top-dose-only effect; inactive = no such curve, though single readings can be large or run the other way; further: potency means the concentration at half of the fitted maximal effect; the source files actives as falling curves though it sought activators and does not explain the sign; nearly all actives have a fitted effect of over 65% in size; many hits overshoot -100%
Target sequence (P80244 whole entry, looked up): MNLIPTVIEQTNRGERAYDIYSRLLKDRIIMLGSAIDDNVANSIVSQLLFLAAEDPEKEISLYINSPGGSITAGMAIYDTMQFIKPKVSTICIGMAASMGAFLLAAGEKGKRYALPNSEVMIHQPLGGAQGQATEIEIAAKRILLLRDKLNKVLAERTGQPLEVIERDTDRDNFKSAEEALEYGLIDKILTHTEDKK
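ClpP 10 microg/mL final, pH 8 Tris/KCl buffer with BSA, glycerol, Tween-20; compound pinned in; FRET-FV substrate; RT 20 min; Ex320/Em430; ΔFRET vs ADEP 5.8 microM, DMSO, no enzyme.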
gsp antagonist – antagonists of gsp mutant (McCune-Albright syndrome) | 0.4% of 340,000 active | AID 624288 | gsp-mutant cells, cAMP HTRF, 30 min; control for the full effect not named in the record | Potency, µM (top dose mostly 76.9 µM), for inactives: at the top dose activity change, negative = inhibition, hits mostly inhibitors; active = falling curve of any shape with a large fitted effect; inconclusive = falling curve, mostly with a smaller effect; inactive = flat or rising curve; cell line not stated here;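 further: intracellular cAMP measured with PDE inhibitor Ro 20-1724 present during compound exposure; potency means the concentration at half of the fitted maximal effect; on the % scale 0 is the no-effect control and ±100 the full control effect; nearly all actives have a fitted effect of over 65% in size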
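HTRF cAMP measurement after 30 min RT detection following 30 min, 37C compound treatment alongside […] (added as 300 uM solution) in G418-selected cells seeded at 2000/well and grown 16–24 h.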
TRPML1 ag – agonists of human TRPML1 channel | TRPML1-expressing cells, Ca2+ dye fluorescence, FDSS; host cell line not named in the record; reference of the full effect not given here | activation, % (concentration not given with the values) | 0.12% of 410,000 active | Q9GZU1; in the data active = activation above about 50%; inconclusive = about 30% to 50%; inactive = below about 30%; further: 0% is about no effect; the text of the record puts the active cut at 80%
Target sequence (Q9GZU1 whole entry, looked up): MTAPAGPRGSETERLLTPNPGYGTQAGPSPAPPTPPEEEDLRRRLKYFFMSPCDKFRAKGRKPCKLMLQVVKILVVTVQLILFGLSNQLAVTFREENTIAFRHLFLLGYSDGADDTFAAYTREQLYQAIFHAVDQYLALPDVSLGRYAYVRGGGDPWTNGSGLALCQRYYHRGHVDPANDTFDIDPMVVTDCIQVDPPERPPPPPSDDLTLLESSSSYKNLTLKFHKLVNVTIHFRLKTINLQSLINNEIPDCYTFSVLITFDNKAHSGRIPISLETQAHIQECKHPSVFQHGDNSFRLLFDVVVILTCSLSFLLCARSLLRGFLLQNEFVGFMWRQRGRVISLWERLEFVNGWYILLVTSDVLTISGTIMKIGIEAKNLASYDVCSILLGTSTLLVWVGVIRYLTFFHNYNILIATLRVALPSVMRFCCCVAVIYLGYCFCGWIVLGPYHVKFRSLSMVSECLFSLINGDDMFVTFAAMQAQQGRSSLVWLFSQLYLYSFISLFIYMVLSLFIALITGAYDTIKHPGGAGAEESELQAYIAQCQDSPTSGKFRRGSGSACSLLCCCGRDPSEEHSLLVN
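In this qHTS format, compounds were pin-transferred onto Ca8-dye-loaded TRPML1-DL cells induced with Tet overnight, and intracellular Ca2+ fluorescence was recorded kinetically for 110 s after a 10 s baseline. A subsequent 4uM final 54-4 (EC80) addition followed by a second 110 s read served as the antagonist phase.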
TRPML1 blocker – blocks the human TRPML1 channel; Q9GZU1; TRPML1-inducible cells, Ca2+ dye fluorescence, FDSS; active compounds read low; inhibition of EC80 agonist-evoked calcium signal; activity change, negative = inhibition, % (no concentration beside the values); 0.02% of 390,000 active; AID 624415; in the data active means activity change below about -50%; inconclusive means about -30% to -50%; inactive means above about -30%;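 further: stimulus is agonist 54-4 at its EC80 concentration; on the % scale 0 is the no-effect control and ±100 the full control effect; compound concentration not given in the record; the text of the record puts the active cut at -80%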
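Calcium fluorescence in TRPML1-DL cells induced overnight with Tet: a 110 s read after compound pin addition, then a 110 s antagonist read after challenge with 54-4 at 4 uM final (EC80).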
gsp agonist – gsp mutant agonism | gsp mutant cells, cAMP HTRF, 30 min; control for the full effect not named in the record | 0.13% of 340,000 active | AID 624287 | Potency, µM (series often up to 76.9 µM), for inactives: top-dose activation (cAMP increase), actives largely listed as activators; active = well fitted activation curve with a large enough effect; inconclusive = small, poorly fitted or top-dose-only effect, or another doubt; inactive = no such curve, though single readings can be large or run the other way; cell line not stated here;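 further: phosphodiesterase inhibitor Ro 20-1724 added with compounds to block cAMP breakdown; potency means the concentration at half of the fitted maximal effect; nearly all actives have a fitted effect of over 60% in size; about a fifth of the inactives were tested at one dose only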
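Cells stably selected in G418 were plated at 2000/well, grown 16-24 hr, then given compounds in DMSO with the PDE inhibitor […] (300 uM solution added) for 30 min at 37C; cAMP was read by HTRF.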
Active calls of the source: *; u = inconclusive; x = not tested or not shown; & = joins results of further samples; [ ] = remark or other dose.

SMILES	Menin-MLL FL inh	ClpP mod	gsp antagonist	TRPML1 ag	TRPML1 blocker	gsp agonist
Oc1ccc(/C=N/Nc2nc(-c3cccnc3)nc3ccccc23)c(O)c1	u	-3.5%	-5.7%	x	x	1.9%
CC1Cc2nc(SCC(=O)Nc3ccccc3F)n(C)c(=O)c2S1 (stereo not drawn)	1.0	-1.6%	-7.6%	-0.2	-14.1	u
COc1ccccc1N1CCN(C(=O)Cn2cnc3onc(-c4ccc(F)cc4)c3c2=O)CC1	x	-2.0%	x	-0.1	24.3	x
Cc1ccc(-c2c[n+](CC(=O)c3cccs3)c3n2CCC3)cc1	-2.0	x	11.4%	2.3	-11.3	22.4%
COc1ccc(/C=C/C(=O)OCC(=O)Nc2ncc(Cl)cc2Cl)cc1	x	-14.9%	-15.4%	0.7	5.6	7.7%
CCOC(=O)c1c(NC(=O)c2nn(CC)cc2Br)c(C#N)nn1-c1ccccc1	3.5	-18.4%	u	1.3	13.2	1.5%
CCN(CC(=O)Nc1ccccc1OC)Cc1csc(CC(=O)Nc2ccc(C)cc2)n1	x	x	-12.4%	0.6	-14.8	7.8%
Cc1cc(C)c(OCC(=O)N(Cc2ccc(N(C)C)cc2)CC2CCCO2)c(C)c1 (stereo not drawn)	x	0.5%	x	0.0	-6.5	x
COCCOC(=O)C1=C(C)N=C2SCCC(=O)N2C1c1ccc(OC(=O)c2ccco2)cc1 (stereo not drawn)	2.2	1.1%	-17.4%	-0.2	1.6	-9.8%
O=C(C(=Cc1ccccc1)CN1CCCCC1)c1ccccc1	x	-3.1%	-8.5%	0.5	6.7	29.9%
CC(C)N1C/C(=C/c2cccnc2)C(=O)/C(=C/c2cccnc2)C1	0.1	-2.3%	3.9%	-0.6	-9.9	-1.5%
O=C(Nc1ccccc1C(=O)O)c1cccc(NC(=O)c2ccco2)c1	3.6	x	-12.0%	0.3	-2.4	-6.2%
COc1ccc(-c2cnc(N)nc2-c2ccc(OC)cc2O)cc1	-0.1	1.0%	u	0.2	-4.4	7.1%[15.4 µM]
CC(C)[C@H](NC(=O)[C@H](Cc1ccccc1)n1c(=O)[nH]c2ccccc2c1=O)C(=O)N[C@@H](Cc1ccccc1)C(=O)O	0.5	u	12.6%	x	x	x
CN(C)S(=O)(=O)N(Cc1ccc(Br)cc1)c1ccccc1	0.0	0.0%	-7.7%	0.5	11.9	6.2%
CC(c1ccco1)N(C(=O)COc1ccc(Cl)cc1Cl)c1ccccn1 (stereo not drawn)	-3.8	1.7%	-28.6%	-0.2	0.0	21.1%
O=C1CCCCCN1Sc1ccccc1	2.3	-3.1%	-3.5%[15.4 µM]	0.4	-4.5	2.8%
O=C(Nc1csnn1)c1csnn1	-12.9	0.7%	-1.2%	-0.1	-1.6	u
Fc1ccc(CNC(=S)Nc2ccc(Cl)cc2)cc1	0.6	0.2%	-10.3%	-0.8	25.9	-21.9%
Cc1ccc(-n2nc3c(=S)[nH]nc(C)c3c2C)cc1	5.6	-1.9%	13.3%	0.4	0.0	u
CCCCN(C)CC(O)Cn1cc(/C=C/C(=O)c2cccs2)c2ccccc21 (stereo not drawn)	u	-1.3%	12.1%	15.7	17.6	-27.2%
CC(C)(C)NC(=O)C(c1ccc(F)cc1)N(C(=O)CCC(=O)Nc1ccccn1)C1CCCC1 (stereo not drawn)	4.4	x	-9.0%	1.0	31.9	21.1%
COc1cc(NC(=O)CN(c2ccc(C)cc2)S(=O)(=O)c2c(C)n[nH]c2C)cc(OC)c1	0.3	0.4%	-20.3%	-0.9	-8.9	14.8%
CCC(OC(=O)CN1C(=O)C(=O)c2ccccc21)C(=O)Nc1ccc(S(N)(=O)=O)cc1 (stereo not drawn)	3.2	x	9.9%	-0.5	-7.3	-9.0%
O=C(CN(c1ccccc1)S(=O)(=O)c1ccccc1[N+](=O)[O-])Nc1ccccc1C(=O)N1CCOCC1	0.0	x	-10.9%	-0.1	-4.8	-20.9%[15.4 µM]
Cc1ccc(O)c(-c2cc(-c3ccccc3F)[nH]n2)c1	-0.1	0.9%	-10.9%	0.5	20.8	-0.4%
COc1cc(Br)c(CNc2cc(C)ccc2C)cc1OC	-1.5	0.9%	-20.0%	0.0	-4.1	28.3%
Cc1ccc(S(=O)(=O)N2CCCCC2)cc1C(=O)NCCC1=CCCCC1	x	2.2%	7.2%	0.9	22.2	-11.6%[15.4 µM]
COc1ccc(-n2cc3ccc([N+](=O)[O-])cc3n2)cc1	-4.4	x	-15.8%	0.0	10.4	19.4%
O=C1CC(c2ccccc2)Cc2nc(NCc3ccco3)ncc21 (stereo not drawn)	0.4	-2.3%	7.4%	1.5	46.5	-29.9%
CC(=O)c1c(C(=O)O)c2ccccc2[nH]c1=O	1.8	-24.2%	6.7%	-0.7	10.9	10.3%
CSCCC(C)N1CCC(Oc2ccc(C(=O)NCc3ccccn3)cc2)CC1 (stereo not drawn)	x	1.3%	x	-0.4	10.1	-38.3%[inhibitor]
N#Cc1ccc(-c2ccc(OCC(=O)NCCCN3CCCC3=O)cc2)cc1	0.8	u	10.0%	-1.4	1.8	-12.9%[15.4 µM]
CCCN1C(=O)/C(=C/c2nc3ccccc3c(=O)[nH]2)c2cc(C)ccc21	2.9	x	-0.8%	-0.2	-0.1	8.6%[15.4 µM]
O=C(NCc1cccnc1)c1ccc(CS(=O)(=O)c2ccc(Br)cc2)o1	3.2	-1.0%&-1.2%	-9.4%	1.8	-23.1	-0.7%
CN(CC(=O)Nc1ccc(Cl)c(C(F)(F)F)c1)C(=O)c1cn2ccccc2n1	x	-8.8%	-10.5%	0.3	7.8	-1.1%[15.4 µM]
Cc1ccc(S(=O)(=O)N(C)CCCC(=O)Nc2cc(C)ccc2C)cc1	-0.4	2.5%	-3.5%	-0.7	-13.2	4.2%
C/C(=N/NC(=O)c1ccn(C)n1)c1ccncc1	-1.9	2.0%	8.4%	0.8	-4.1	-3.8%
O=C(NCCCc1ccccc1)c1cc(COc2ccc(F)cc2Cl)on1	5.7	0.4%	6.0%	0.9	6.3	-21.5%
CC(C)CCNC(=O)C(NS(=O)(=O)c1ccc2c(c1)c(=O)n(C)c(=O)n2C)c1ccccc1 (stereo not drawn)	-0.7	-0.4%	28.0%	-0.8	0.3	u
COc1ccc2[nH]c3c(c2c1)CCN(C(=O)c1cccc(Cl)c1)C3c1ccc(F)cc1 (stereo not drawn)	x	-11.0%	x	0.2	24.5	x
CCc1nc(NCCC(C)C)c2nnn(Cc3ccccc3)c2n1	0.6	-2.1%	2.4%	x	x	-39.0%[inhibitor]
CC(C)NC(=O)c1ccc2c(c1)N(CC(=O)Nc1ccccc1F)C(=O)C(C)(C)O2	-2.3	0.6%	4.9%	0.1	5.9	2.7%[15.4 µM]
O=C(c1cccs1)N1CCN(C(=O)N2CCOCC2)CC1	4.4	0.0%	7.9%	0.3	19.0	-14.5%
CN(CC1CCOCC1)C(=O)CC1C(=O)NCCN1Cc1ccccc1F (stereo not drawn)	-10.2	-7.2%	10.2%	-0.4	0.5	2.3%
O=C(CSC1=NCCS1)Nc1ccc(S(=O)(=O)NC2CCCCC2)cc1	2.2	-2.7%	3.4%	-0.4	34.1	-31.7%[inhibitor]
Cc1ccc(CN2CC(C(=O)Nc3cc(S(C)(=O)=O)ccc3Cl)CC2=O)cc1 (stereo not drawn)	-0.1	-3.3%	7.8%	-1.3	1.9	20.5%
CCC(CC)NC(=O)/C=C/c1cccc([N+](=O)[O-])c1	4.4	-2.5%	2.2%	0.0	22.6	-29.2%
Fc1ccc(Nc2nc(-c3ccncc3)nc3ccccc23)cc1F	2.1	x	-3.6%	-0.6	11.3	37.8%
CCOC(=O)c1ccc(NC(=O)Cn2nnc(-c3ccc(C(F)(F)F)cc3)n2)cc1	x	0.2%	x	-0.1	-10.6	x
CCOc1ccc(NC(=O)CN(C)C(=O)CCC2CCCCC2)cc1OCC	x	-1.2%	-11.0%	0.1	16.0	4.9%
Cc1cc(OC(C)C(=O)NCC2CCC(C(=O)O)CC2)c2c(C)cc(=O)oc2c1 (stereo not drawn)	-2.1	4.8%	7.3%	x	x	x
O=C(/C=C/c1cccnc1)c1ccc(F)c(F)c1	-9.2	x	-14.1%	0.9	1.2	5.6%
CCCOc1cccc(C2C(C(=O)c3cccs3)=C(O)C(=O)N2Cc2cccnc2)c1 (stereo not drawn)	0.4	x	-6.6%	22.3	-2.7	u
COC(=O)c1ccc(CN2C(=O)NC(Cc3c[nH]c4ccccc34)C2=O)cc1 (stereo not drawn)	-1.3	-2.6%	-23.1%	-1.2	1.3	11.2%[15.4 µM]
O=C(Nc1ccccc1N1CCCCC1)c1ccc(Cl)c([N+](=O)[O-])c1	2.3	x	x	-0.5	-5.6	-22.8%[15.4 µM]
CCc1nc2c(OCc3ccc(C#N)cc3)cccn2c1N(C)C(=O)c1ccc(C)cc1	x	1.7%	x	0.2	-3.2	x
COc1ccc(Oc2c(-c3ccc(O)cc3O)n[nH]c2C)cc1	-0.2	1.5%	-15.3%	0.7	9.5	3.1%
CCOc1ccccc1C(=O)OCC(=O)NCC1CCCCC1	x	x	3.9%	3.2	-5.1	-35.2%[15.4 µM]
O=C(NCCc1c[nH]c2ccccc12)c1cc([N+](=O)[O-])cc([N+](=O)[O-])c1	2.5	-2.1%	u	x	x	29.9%

Filtered by structure, the entries above with a CF3 group (2)
SMILES	Menin-MLL FL inh	ClpP mod	gsp antagonist	TRPML1 ag	TRPML1 blocker	gsp agonist
CN(CC(=O)Nc1ccc(Cl)c(C(F)(F)F)c1)C(=O)c1cn2ccccc2n1	x	-8.8%	-10.5%	0.3	7.8	-1.1%[15.4 µM]
CCOC(=O)c1ccc(NC(=O)Cn2nnc(-c3ccc(C(F)(F)F)cc3)n2)cc1	x	0.2%	x	-0.1	-10.6	x

Remaining list, next part:
SMILES	Menin-MLL FL inh	ClpP mod	gsp antagonist	TRPML1 ag	TRPML1 blocker	gsp agonist
O=S(=O)(NCc1ccccc1)c1cccc2cccnc12	-1.2	1.2%	10.3%	-0.2	8.8	-6.5%
CC(C)CN1CCN=C1N(C)C	x	-2.7%	14.0%	-0.5	0.6	x
CCCCNc1c2c3c(cccc3n(C)c1=O)C(=O)c1ccccc1-2	u	0.7%	5.5%	88.8*	-15.0	-13.6%
CC(=O)c1ccc(OCC(=O)Nc2cccc(C(=O)Nc3c(C)n(C)n(-c4ccccc4)c3=O)c2)cc1	x	-1.3%	21.0%	-0.5	11.6	-30.7%[inhibitor]
CC(C)Cc1n[nH]c(=O)[nH]1	-0.9	0.7%	6.2%	-0.6	-12.3	-3.0%
CC1Cc2ccccc2N1C(=O)COC(=O)c1ccc(Cl)nc1 (stereo not drawn)	-3.1	1.0%	8.2%	-0.3	25.0	-2.2%[15.4 µM]
COc1ccc(CN2CCC(Cc3ccccc3)CC2)c(C)c1C	x	x	8.0%	0.4	9.8	-20.2%
